MT1-MMP reporter – MT1-MMP gene expression reporter suppression – cell-based, luciferase reporter, luminescence (AID 618); calls from a first round at 10 µM; hits with a dose series show EC50 in µM; actives 0.62% (n = 87,000); MT1-MMP promoter luciferase reporter cells, luminescence;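 active = over half of the reporter light lost at 10 µM or EC50 under 50 µM; inactive = the rest and hits that failed the dose series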;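 note: actives suppress MT1-MMP promoter-driven transcription so potencies describe inhibitors; HT1080 fibrosarcoma cells; overnight exposure; toxic or luciferase-blocking compounds were not removed from the actives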
Hsc70 – Hsc70 inhibitors, probe displacement, primary screen, biochemical, fluorescence polarization (AID 568) | 83,000 tested, under 10 active | displacement, % at 20 µM; hits with a dose series show IC50 in µM | Hsc70 fluorescence polarization, probe displacement; higher % means a stronger effect; strong numbers were not always called active;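 active = displacement above 50% without optical interference and an IC50 on retest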;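 note: ATPase domain with a fluorescein-tagged ATP probe; 0% = vehicle and 100% = excess ADP; read after one hour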
WNV NS2B-NS3 inh – WNV NS2B-NS3 proteinase inhibition; P06935; WNV NS2B-NS3 protease, fluorogenic substrate Ex360/Em465; hits give low values; z-score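 (tested at a level between 10 and 100 µM)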; actives 0.18% (n = 65,000); AID 577;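 active = z-score at -3 or under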;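 note: score is relative to mean and spread of the compound wells of a plate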
Target sequence (P06935 1371-1501 limits assumed): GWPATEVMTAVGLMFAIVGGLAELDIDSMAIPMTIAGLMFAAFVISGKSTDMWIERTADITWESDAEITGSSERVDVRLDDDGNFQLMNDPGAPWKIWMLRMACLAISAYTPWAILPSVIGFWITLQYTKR
Target sequence (P06935 1502-1679 limits assumed): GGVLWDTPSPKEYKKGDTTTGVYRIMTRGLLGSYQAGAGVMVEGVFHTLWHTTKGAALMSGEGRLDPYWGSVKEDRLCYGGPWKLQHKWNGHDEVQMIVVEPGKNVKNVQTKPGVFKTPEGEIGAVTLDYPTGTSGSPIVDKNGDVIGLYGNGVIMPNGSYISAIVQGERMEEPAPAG
Active calls of the source: *; i = inactive; nt = not tested or not shown.

Start of the data: the first 4 entries, ahead of the listing:
compound	MT1-MMP reporter	Hsc70	WNV NS2B-NS3 inh
CCOc1cccc(C2C(C(=O)c3ccc(C)o3)=C(O)C(=O)N2c2nccs2)c1 (stereo unspecified)	i	134%	-0.3
COc1cc(Cl)c(S(=O)(=O)NCc2cccnc2)cc1Cl	i	-0.6%	-0.87
CN1c2ccccc2C(C)(C)[C@]12C=Cc1cc(O)ccc1O2	i	-11%	nt
CC1CCCN(c2ccc(C(=O)NCCc3ccccc3)cn2)C1 (stereo unspecified)	i	8.9%	-0.55

All compounds of this part, from the start:
compound	MT1-MMP reporter	Hsc70	WNV NS2B-NS3 inh
CCOc1cccc(C2C(C(=O)c3ccc(C)o3)=C(O)C(=O)N2c2nccs2)c1 (stereo unspecified)	i	134%	-0.3
COc1cc(Cl)c(S(=O)(=O)NCc2cccnc2)cc1Cl	i	-0.6%	-0.87
CN1c2ccccc2C(C)(C)[C@]12C=Cc1cc(O)ccc1O2	i	-11%	nt
CC1CCCN(c2ccc(C(=O)NCCc3ccccc3)cn2)C1 (stereo unspecified)	i	8.9%	-0.55
Nn1c(-c2cccs2)nc2sc3c(c2c1=O)CCCC3	i	-11%	1.8
O=C(Nc1ccc2c(c1)OCO2)c1cnn2c(C(F)(F)F)cc(-c3ccco3)nc12	i	6.3%	1.5
Cc1c(C2OC(=O)C3(CCCCC3)C(=O)C2(C)C)c(=O)n(-c2ccccc2)n1C (stereo unspecified)	i	-1.0%	-0.26
CCOc1ccc(S(=O)(=O)NCc2cccs2)cc1	i	-3.4%	nt
CCN(CC)C(=O)CSc1nc2cc3c(cc2c(=O)n1Cc1ccc2c(c1)OCO2)OCO3	i	-3.0%	1.9
C=CCOC(=O)Nc1ccc(Cl)cc1NC(=O)OCC=C	i	-1.0%	-0.12
O=C(NCc1ccco1)c1cccn2c(=O)c3cc4ccccc4cc3nc12	i	-4.8%	nt
CCOC(=O)c1sc(NC(=O)CSc2nc3c(cc2C#N)CCC3)c(C#N)c1C	i	-5.1%	-0.14
COc1ccc(N=C2SC(CC(=O)Nc3ccc(OC)cc3OC)C(=O)N2C)cc1 (stereo unspecified)	i	-3.9%	0.24
Cc1cccc(NC(=O)CCc2ccc(C)o2)c1	i	-2.6%	1.7
Cn1nc(-c2ccc(N3CCCCC3)c(NC(=O)c3ccco3)c2)c2ccccc2c1=O	i	-7.1%	1.1
CCOC(=O)CSc1nnc(Cc2ccccc2)n1-c1ccc(C)cc1	i	0.3%	nt
CCCCNC(=O)CC1C(=O)N(Cc2ccccc2)C(C)c2nc3ccccc3n21 (stereo unspecified)	i	-4.3%	-0.62
Cc1cc(NC(=O)c2cccc(S(=O)(=O)N(C)C)c2)n(-c2ccccn2)n1	i	2.6%	nt
COC(=O)c1cc(OC)c(OC)cc1NC(=O)CN1CCOCC1	i	1.3%	-2.3
CSCCC(NS(=O)(=O)c1ccc2c(c1)oc(=O)n2C)C(=O)NC1CCC(C)CC1 (stereo unspecified)	i	0.1%	-1.9
Nc1ccc(Oc2ccc(Cl)cc2)cc1	i	-0.2%	nt
Clc1ccc(-c2nnc3ccccn23)cc1	i	1.8%	-2.3
Cc1nnc(N(Cc2ccco2)C(=O)c2ccno2)s1	i	-4.8%	-0.55
Cc1ccccc1OCC1Cn2c(nc3c2c(=O)[nH]c(=O)n3C)O1 (stereo unspecified)	i	-2.7%	-1.2
COc1ccc(-n2ncc3c(N4CCc5ccccc54)ncnc32)cc1	i	9.1%	0.72
CCCn1nc(C(=O)NCC(C)(C)N2CCOCC2)c2ccccc2c1=O	i	5.5%	nt
O=C(OCC(=O)N1CCOCC1)C(c1ccccc1)c1ccccc1	i	0.5%	-1
O=C(c1c(Cl)nc2sccn12)N(C(=O)c1c(Cl)nc2sccn12)c1ccc(Cl)cn1	i	-0.3%	0.21
Cc1c(N=C/C=C2/N(C)c3ccccc3C2(C)C)c(=O)n(-c2ccccc2)n1C	i	-8.2%	nt
CCc1ccc(/C=N/Nc2nn[nH]n2)cc1	i	4.9%	nt
CCC(c1nnnn1C1CCCC1)N1CCN(C(=O)c2ccco2)CC1 (stereo unspecified)	i	-79%	-0.73
Cc1sc2ncnc(Sc3nnnn3-c3ccc(Cl)cc3)c2c1C	i	-5.0%	0.39
NC(=O)C1CCC(NC(=O)OCc2ccccc2)CC1 (stereo unspecified)	i	-0.8%	-0.75
Cc1ccc(OCC(O)Cn2c(N3CCOCC3)nc3c2c(=O)[nH]c(=O)n3C)cc1 (stereo unspecified)	i	-1.1%	0.86
CCOC(=O)C1=C(C)N[C@@]2(O)c3ccccc3C(=O)[C@@]12O	i	-0.5%	nt
CC(C)(C)c1ccc(S(=O)(=O)CCc2ccccn2)cc1	i	6.4%	nt
O=C(CCN1CCCCCC1)Nc1ccccc1F	i	2.7%	nt
O=C(Nc1ccccc1)c1ccc(F)c(S(=O)(=O)N2CCOCC2)c1	i	3.5%	-0.33
COc1cc(-c2nnc(-c3ccco3)o2)ccc1OCc1ccccc1	i	-3.2%	0.36
Cc1ccc(S(=O)(=O)Cn2nnnc2C(C(C)C)N2CCN(C(=O)c3ccco3)CC2)cc1 (stereo unspecified)	i	-4.9%	-0.73
COCCN(Cc1cc2cccc(C)c2[nH]c1=O)C(=O)c1ccccc1	i	7.9%	-0.16
COCCCNC(=O)CC(NS(=O)(=O)c1ccc(Cl)cc1)c1ccc(OC)cc1 (stereo unspecified)	i	-0.3%	nt
Cc1ncc(S(=O)(=O)c2ccc(Cl)cc2)c(-c2ccccc2)n1	i	-1.6%	nt
COC(=O)CCc1c(C)[nH]c(=S)[nH]c1=O	i	0.2%	-0.06
Cc1cc(C)c(NC(=O)CSc2nnc(-c3ccncc3)n2Cc2ccco2)c(Cl)c1	i	6.3%	-0.67
CSCCC(/C(O)=C(\C#N)c1nc2ccccc2[nH]1)N1C(=O)c2ccccc2C1=O (stereo unspecified)	i	-4.6%	0.97
O=c1ccnc(NCCc2ccccc2)[nH]1	i	4.7%	-1.1
CCCCn1c(SCC(=O)NCc2ccccc2)nc2ccc(N3CCOCC3)cc2c1=O	i	-1.5%	-0.3
Cc1ccccc1CS(=O)(=O)CCC(=O)NCc1ccccn1	i	5.1%	-0.61
CCCCCc1ccc(S(=O)(=O)NCCc2ccncc2)cc1	i	4.3%	nt
Cc1ccc(NC(=O)COC(=O)c2ccn(C)n2)cc1	i	4.5%	0.45
COC(=O)CSc1nnc(CNC(=O)c2cc(OC)c(OC)c(OC)c2)n1C	i	7.8%	0.08
CCC1(COC(=O)Nc2cccc(Cl)c2)COC1	i	1.8%	-0.42
O=C(OCCn1cncn1)c1cc2ccccc2oc1=O	i	4.8%	0.31
COC(=O)COc1ccc(S(=O)(=O)Nc2ccc3c(c2)OCO3)cc1Cl	i	-8.7%	-0.6
OCc1ccc(O)c2ncccc12	i	1.6%	nt
Cc1ccc(Cn2c(=N)c(C(=O)NCc3ccco3)cc3c(=O)n4ccccc4nc32)cc1	i	3.2%	0.47
Clc1ccccc1-c1nn2c(-c3ccncc3)nnc2s1	i	-7.1%	-0.49
COc1ccc(-c2ccc(SCC(=O)Nc3cc(C)on3)nn2)cc1OC	i	0.5%	0.73
CC(=O)Nc1sc(NC(=O)c2ccc(C)cc2)nc1-c1cccs1	i	-1.7%	nt

2 successive compounds already listed, quoted:
compound	MT1-MMP reporter	Hsc70	WNV NS2B-NS3 inh
COc1ccc(-c2ccc(SCC(=O)Nc3cc(C)on3)nn2)cc1OC	i	0.5%	0.73
CC(=O)Nc1sc(NC(=O)c2ccc(C)cc2)nc1-c1cccs1	i	-1.7%	nt

More results follow.
compound	MT1-MMP reporter	Hsc70	WNV NS2B-NS3 inh
Cc1csc(NC(=O)CSc2nc3ccccc3c(=O)[nH]2)n1	i	-14%	-0.71
COc1cc(N)c(Cl)cc1NC(=O)c1ccccc1	i	-2.6%	0.93
COc1cc2c(cc1OC)C(C)N(C(=O)Cn1ncc3c1-c1ccccc1OC3)CC2 (stereo unspecified)	i	4.8%	0.44
O=C(CN1C(=O)CSC1=O)Nc1ccc2c(c1)OCCO2	i	3.3%	-0.44
COc1ccc(NC(=O)N2CC(C)OC(C)C2)cc1OC (stereo unspecified)	i	12%	-1
CC1=NNC(=O)C1C(c1ccc(F)cc1)C(C#N)C#N (stereo unspecified)	i	0.3%	nt
Cc1ccc2cc(CN(C(=O)c3ccncc3)C(C)C)c(=O)[nH]c2c1	i	-10%	0.59
COc1ccc(Cc2nnc(NC(=O)Cn3cnc4c3c(=O)n(C)c(=O)n4C)s2)cc1	i	-0.6%	nt
O=c1c2c(nc3cc(-c4ccc(F)cc4)[nH]n13)CCCC2	6.5µM*	-11%	0.36
COc1ccc(OC(C)C(=O)N2CCOCC2)cc1 (stereo unspecified)	i	1.4%	-0.58
O=C1c2ccccc2C(Nc2ccc(-c3nc4ccccc4[nH]3)cc2)N1Cc1ccco1 (stereo unspecified)	i	1.2%	-0.19
CCCC(=O)Nc1ccccc1-c1nnn(CC(=O)Nc2ccc(OCC)cc2)n1	i	1.2%	-0.44
N#Cc1nc(-c2cccs2)oc1N1CCN(c2ccccc2)CC1	i	-0.5%	0.24
Clc1ccc2nc(NC3=NCN(CCN4CCOCC4)CN3)nc(-c3ccccc3)c2c1	i	-4.5%	-0.89
Cc1cccn2c(=O)c(/C=N/O)c(N3CCCCC3)nc12	i	-0.1%	-1.2
O=C(COc1ccc(Cl)cc1)Nc1ccc2oc(-c3ccncc3)nc2c1	i	0.3%	0.2
O=S(=O)(NC1=NCCCCCC1)c1cccs1	i	-1.7%	-0.56
O=c1c2cc(Br)cc(Br)c2oc2nc3n(c(=O)c12)CCCS3	i	0.7%	nt
COC(=O)Cc1ccc(NC(=O)c2ccc(Br)o2)cc1	i	4.1%	0.66
Cc1cc(C)nc(N2N=C(C(C)(C)C)CC2=O)n1	i	2.4%	nt
COc1cc(OC)cc(C(=O)NCCN2CCOCC2)c1	i	6.6%	-0.57
O=C1C2C3C=CC(C3)C2C(=O)N1CCc1ccccc1 (stereo unspecified)	i	-2.7%	nt
CC1(c2ccc(Cl)cc2)NC(=O)N(CC(=O)NC(=O)NCc2ccco2)C1=O (stereo unspecified)	i	0.1%	-0.34
CCOC(=O)N1CCC(NC(=O)CSc2cc(=O)n(C)c3ccccc23)CC1	i	8.5%	-0.54
CCC(=O)Nc1nc(C)c(C(=O)NC2CCCCC2)s1	i	1.5%	nt
CC(C)(C)C(=O)Oc1cc(N)n(S(=O)(=O)c2ccccc2)n1	i	-1.0%	-0.63
CCOC(=O)c1c(NC(=O)c2ccoc2C)sc(C(=O)N(C)C)c1C	i	-0.7%	nt
COc1ccc(CCNC(=O)c2nnn(CC(=O)Nc3ccccc3C)c2N)cc1OC	i	4.9%	0.31
CCC(=O)N=C1SC2CS(=O)(=O)CC2N1c1cccc(OC)c1 (stereo unspecified)	i	-12%	-0.79
CCOc1ccc(N(CC(N)=O)S(=O)(=O)c2ccc(F)cc2)cc1	i	3.3%	-0.54
COc1ccc2cc(CN(Cc3cccnc3)Cc3nnnn3Cc3ccccc3)c(=O)[nH]c2c1	i	-5.2%	-1.3
Cc1cccc(NC(=O)N2CCC(c3nc4ccccc4o3)CC2)c1	i	-7.2%	-0.8
CC(=O)Nc1cccc(Oc2ccc3c(c2)C(=O)N(CCC(=O)O)C3=O)c1	i	-3.8%	0.63
O=C(CN1CCCC1)N1c2ccccc2Sc2ccc(C(F)(F)F)cc21	i	3.5%	nt
Cc1ccc(N(C(C)C(=O)Nc2ccccc2C(=O)N2CCOCC2)S(C)(=O)=O)cc1C (stereo unspecified)	i	2.2%	-1.2
Cn1c(CNc2ccc(Cl)cc2)nnc1SCCN1CCCCC1	i	3.1%	nt
O=S(=O)(NCCSc1nc2ccccc2o1)c1ccccc1	i	8.0%	1.1
c1ccc(CNc2c3c(nc4ncnn24)CCCC3)nc1	i	0.8%	0.58
COc1ccc(N(CC(=O)Nc2cc(C)on2)S(=O)(=O)c2cc(C)ccc2C)cc1	i	4.1%	0.19
O=C1NC(=O)C(CC(=O)N(c2ccccc2)C2(C(=O)NC3CCCC3)CCCCC2)N1 (stereo unspecified)	i	-3.0%	-0.48
CC1(C)CC(=O)C2=C(C1)OC(N)=C(C#N)C2C#Cc1ccccc1 (stereo unspecified)	i	-0.7%	-0.87
COc1ccc(-c2c(NC(=O)c3ccco3)n(C)c3ccccc3c2=O)cc1	i	0.7%	nt
CCCCn1c(=NC(=O)c2ccc3c(c2)OCO3)c(C#N)cc2c(=O)n3cccc(C)c3nc21	i	-4.4%	-0.66
C/C(=N\NS(=O)(=O)c1ccc(C)cc1)c1ccc(Br)s1	i	1.3%	nt
O=C(CSc1nnc(Cc2cccs2)n1CCc1ccccc1)N1CCCc2ccccc21	i	0.5%	nt
CCC(=O)Nc1cccc(NC(=O)c2ccc3c(c2)OCCO3)c1	i	0.4%	-0.76

Compound activity from PubChem BioAssay.
